Screening results: PubChem, several laboratories
MLL AF4-AF9 inh = MLL-AF4/AF9 protein interaction inhibition | AlphaScreen, biotin-AF4 peptide binding to FLAG-AF9 | hit rate 0.47% among 350,000 | inhibition, % at 10 µM | P42568;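 active = every replicate reaching a set inhibition limit, whatever the replicate mean, cut at about 25% in these data; inconclusive = mean inhibition reaches that limit but some replicates miss it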;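 note: 0% = plate neutral control median and 100% = total signal loss; the record names both 10 and 1 µM as test concentration; the first replicate is given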
HNF4A DNA FP = change in binding of human HNF4 alpha to DNA; P41235; HNF4a-FITC DNA binding, fluorescence polarization, 1 h; activity change, % at 10 µM; hit rate 0.3% among 360,000; in the data active = activity change above about 30%, passing the limit was not always enough;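 note: controls were the assay level and a saturating level of protein; the project sought stronger binding though the title names inhibitors; some compounds called inactive have numbers as strong as hits; positive values seem to mean higher polarization but the record does not say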
Target sequence (P41235 whole entry, looked up): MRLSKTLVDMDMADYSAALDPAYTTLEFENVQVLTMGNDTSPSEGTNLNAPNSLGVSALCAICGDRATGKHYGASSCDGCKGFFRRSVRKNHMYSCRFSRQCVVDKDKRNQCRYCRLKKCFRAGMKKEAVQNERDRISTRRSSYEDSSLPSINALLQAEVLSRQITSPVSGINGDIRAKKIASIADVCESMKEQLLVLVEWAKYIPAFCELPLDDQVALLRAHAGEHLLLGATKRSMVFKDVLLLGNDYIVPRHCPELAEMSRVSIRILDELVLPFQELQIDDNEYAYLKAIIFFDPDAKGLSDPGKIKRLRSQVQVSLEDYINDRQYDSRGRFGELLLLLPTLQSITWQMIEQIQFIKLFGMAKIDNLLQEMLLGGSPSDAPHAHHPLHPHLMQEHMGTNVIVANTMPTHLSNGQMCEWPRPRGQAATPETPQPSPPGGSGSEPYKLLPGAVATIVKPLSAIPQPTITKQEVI
FGF22 binding = FGF22 (human) thermal shift binding. Q9HCT0. recombinant FGF22 thermal shift, SYPRO orange fluorescence; percent of sucrose octasulfate shift, DMSO zero. calls only at 9.99 µM. hit rate 1.5% among 340,000;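 active = melting point raised past a set limit in the mean and every replicate; inconclusive = no clear call; three in four hits are not shown here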
Target sequence (Q9HCT0 whole entry, looked up): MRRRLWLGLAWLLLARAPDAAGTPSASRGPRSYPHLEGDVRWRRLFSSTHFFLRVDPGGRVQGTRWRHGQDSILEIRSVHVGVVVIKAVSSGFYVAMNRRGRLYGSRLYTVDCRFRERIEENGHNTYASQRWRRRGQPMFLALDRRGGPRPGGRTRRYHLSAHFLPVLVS
UCH37 DUB inh = blocks the human deubiquitinase UCH37. Q9Y5K5. inhibition, % (concentration not given with the values). purified proteasome/UCH37, Ub-AMC cleavage fluorescence. hit rate 0.33% among 330,000;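 active = mean of two replicates above 20%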;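 note: 0% = compound-free wells with enzyme and 100% = wells lacking proteasome; stock transfer was 100 nL into about 20 µL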
Target sequence (Q9Y5K5 whole entry, looked up): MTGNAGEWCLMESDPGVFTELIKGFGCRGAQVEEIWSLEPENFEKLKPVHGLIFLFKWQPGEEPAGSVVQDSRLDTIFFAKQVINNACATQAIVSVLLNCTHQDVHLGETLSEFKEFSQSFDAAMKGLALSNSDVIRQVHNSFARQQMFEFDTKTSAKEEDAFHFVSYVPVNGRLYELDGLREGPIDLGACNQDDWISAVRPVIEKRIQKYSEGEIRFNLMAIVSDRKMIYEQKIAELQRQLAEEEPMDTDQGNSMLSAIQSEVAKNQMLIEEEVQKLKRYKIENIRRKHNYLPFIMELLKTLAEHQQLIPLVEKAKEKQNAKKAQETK
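Reagent: Ub-AMC substrate; assay system: Proteasome-associated human UCH37 deubiquitinase; controls: no-proteasome and no-compound wells; read-out: % inhibition of Ub-AMC cleavage fluorescence; timing: 30 min preincubation with enzyme, 25 min cleavage at room temperature; signal: AMC fluorescence from Ub-AMC cleavage, excitation 355 nm, emission 460 nm; buffer or medium: Tris-HCl pH 7.4 plus ovalbumin, ATP-MgCl2, DTT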
Vif A3G = inhibitors of Vif binding to APOBEC3G peptide, primary screen, biochemical, TR-FRET, GST-Vif 1-94, biotin-A3G peptide, dose response retest (AID 1117319). hit rate 0.57% among 260,000. TR-FRET GST-Vif / biotin-A3G peptide binding; higher % means a stronger effect; test concentration not given here; strong numbers were not always called active. one-dose inhibition, %; IC50 in µM for titrated hits;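 active = above the screen mean plus three standard deviations and confirmed in dose response; inconclusive = results disagree or hit not tested in dose response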;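 note: Vif residues 1-94 fused to GST binding biotinylated APOBEC3G peptide 110-148; 0% = full assay without inhibitor and 100% = GST in place of GST-Vif; retest series ran down from 100 µM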
RanGTP-Imp inh = inhibitors of RanGTP-importin-beta interaction, primary screen, biochemical, FRET, CFP-Ran, YFP-importin-beta, homogeneous; cell-free CFP-Ran/YFP-importin-beta FRET ratio; inhibition, % (concentration not given with the values); hit rate 1.1% among 300,000; AID 2216;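 active = most replicates above 15%; inconclusive = exactly half above 15%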;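 note: 0% = DMSO wells and 100% = Ran loaded with GDP instead of GTP; wells of about 40 µL received 100 nL stock; the first replicate is given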
Ecoli growth = inhibitors of Escherichia coli growth; OD600 absorbance (test concentration not listed); hit rate 0.21% among 330,000; AID 1053175; OD600, 23 h; active compounds read low;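 active = OD600 absorbance below the run mean of sample wells minus 3.6 SD, in any replicate, cut at about 0.56 in these data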;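 note: stock transfer was 300 nL into about 60 µL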
An asterisk follows results filed as active; i = inactive; ? = inconclusive; · = no result given.

SMILES	MLL AF4-AF9 inh	HNF4A DNA FP	FGF22 binding	UCH37 DUB inh	Vif A3G	RanGTP-Imp inh	Ecoli growth
Cc1ccc(N2CC(C(=O)NCc3n[nH]c(=O)c4ccccc34)CC2=O)cc1C (centres undefined)	?	1.2	i	-5.2	-8.7%	2.7	0.632
CCS(=O)(=O)N1N=C(c2cccc(NS(C)(=O)=O)c2)CC1c1cccs1 (centres undefined)	-4.1	7.8	i	1.3	·	0.4	0.679
C#CCOc1c(Cl)cc(/C=C2/C(=O)ON=C2C)cc1OC	-15.3	3.7	i	0.0	-1.4%	-1.1	0.67
O=C(NCCO)c1nc2ccccc2s1	·	2.1	·	17.5	-4.2%	-3.8	0.68
COc1ccc(-c2nc3ccccc3n2Cc2ccc(C)cc2)cc1	·	-1.5	·	4.1	5.7%	0.4	0.748
CCOC(=O)c1ccc([N+](=O)[O-])cc1NC(C)=O	3.4	-0.7	i	-0.7	5.6%	3.2	0.683
CCC(NC(=O)C(C)NC)C(=O)N1CCCC1C(=O)NC1CCCc2ccccc21 (centres undefined)	·	-0.5	i	9.7	·	·	0.672
COc1ccc(-c2ccc(CCC(=O)O)n2CC(=O)Nc2ccccc2C)cc1	-8.5	-6.0	i	-10.9	2.8%	1.9	0.69
O=C(CCc1ccc(S(=O)(=O)N2CCOCC2)cc1)Nc1ccc(F)cc1[N+](=O)[O-]	4.0	5.0	i	-0.7	-2.5%	·	0.671
N#CC1=C(SCc2ccccc2)NC(=O)CC1c1ccco1 (centres undefined)	·	-0.9	·	2.9	11.7%	-0.7	0.65
O=C(/C=C/c1ccc2c(c1)OCO2)Nc1cc(S(=O)(=O)N2CCOCC2)ccc1N1CCOCC1	5.3	-1.6	i	7.9	9.4%	2.5	0.666
CC(NC(=O)c1ccc(S(=O)(=O)N(C)C)cc1)c1ccc(-n2ccnc2)cc1 (centres undefined)	1.4	0.8	i	-0.1	·	1.0	0.661
COc1ncccc1C(=O)N1CCCC(C(=O)Nc2cccc(-c3ccc(F)cc3)c2)C1 (centres undefined)	2.6	-2.3	i	·	4.1%	·	·
CC1(C)CC(=O)C2=C(C1)NC(=S)C(C#N)C21CCCCC1 (centres undefined)	-5.9	3.9	·	6.8	-2.6%	2.3	0.629
Cc1oc(-c2ccccc2)cc1C(=O)NC(Cc1c[nH]c2ccccc12)C(=O)O (centres undefined)	·	-3.0	·	3.4	·	3.1	0.683
CCC(C)(C)NC(=O)C(c1ccc(OC)cc1)N(C(=O)CCC(=O)Nc1cc(C)on1)c1ccccc1OC (centres undefined)	-2.3	3.3	i	4.3	·	-2.2	0.7
CCn1cc(C(=O)NC2CCCC2)c(=O)c2cc(S(=O)(=O)N3CCOCC3)ccc21	-1.5	1.7	i	·	·	·	·
COc1ccc([C@H]2C(C(=O)O)=C[C@@H](CC3CCCC3)N2S(=O)(=O)c2ccc(C)cc2)cc1OC	-3.8	-2.2	i	-0.9	-10.1%	·	0.661
CCN1CCc2c(C#N)c(N3CCOCC3)nc(N3CCOCC3)c2C1	·	1.5	·	-17.7	29.4%	-2.0	0.763
CCC(C(=O)NC1CC1)n1nc(C)c2c(C)n(-c3ccc(C)cc3)nc2c1=O (centres undefined)	0.7	-1.0	i	0.0	-0.1%	1.4	0.652
CC(=O)Nc1ccc(NC(=O)c2ccc(Cl)c(S(=O)(=O)N3CCc4ccccc43)c2)cc1	2.8	-0.9	i	0.5	·	·	0.691
Cc1cccc(NC(=O)c2cc([N+](=O)[O-])ccc2Cl)c1O	0.1	-1.3	i	-1.0	1.8%	0.4	0.655
Cc1ccc2sc(N(CCCN(C)C)C(=O)c3ccc(S(=O)(=O)N(C)C)cc3)nc2c1C	5.2	-2.7	i	0.5	4.4%	0.5	0.666
CCOc1ccc(N(C)C(=O)CCc2nnc3ccc(N4CCCCC4)nn23)cc1	7.2	-0.1	i	4.9	·	1.7	0.712
CCOC(=O)c1ccc(N2CCN(c3ccc(F)cc3)CC2)c(NC(=O)Nc2cccc(OC)c2)c1	0.6	2.6	i	-2.2	·	0.7	0.703
CCCS(=O)(=O)NC(=O)C1(C)CCCN(C(=O)c2cccs2)C1 (centres undefined)	-5.2	-0.1	i	·	·	·	·
O=C(N=Nc1c(O)[nH]c2ccc([N+](=O)[O-])cc12)c1ccccc1[N+](=O)[O-]	5.5	0.0	i	61.4*	6.1%	1.6	0.684
CC(C)C1Cc2[nH]c(=S)[nH]c(=O)c2C(c2ccc(F)cc2)O1 (centres undefined)	-2.7	-0.3	i	·	·	·	·
CC1N/C(=C\C(=O)c2ccccc2)N(O)C1(C)C (centres undefined)	·	-0.1	·	1.4	-2.1%	2.0	·
Cc1cc(C)cc(NC(=O)CCn2ccnc2)c1	0.1	-3.1	i	3.3	·	-1.3	0.639

Some of these compounds in order of count of non-hydrogen atoms, lowest first.
SMILES	MLL AF4-AF9 inh	HNF4A DNA FP	FGF22 binding	UCH37 DUB inh	Vif A3G	RanGTP-Imp inh	Ecoli growth
Cc1cc(C)cc(NC(=O)CCn2ccnc2)c1	0.1	-3.1	i	3.3	·	-1.3	0.639
Cc1cccc(NC(=O)c2cc([N+](=O)[O-])ccc2Cl)c1O	0.1	-1.3	i	-1.0	1.8%	0.4	0.655
CC(C)C1Cc2[nH]c(=S)[nH]c(=O)c2C(c2ccc(F)cc2)O1 (centres undefined)	-2.7	-0.3	i	·	·	·	·
CCOC(=O)c1ccc(N2CCN(c3ccc(F)cc3)CC2)c(NC(=O)Nc2cccc(OC)c2)c1	0.6	2.6	i	-2.2	·	0.7	0.703

The listing continues:
SMILES	MLL AF4-AF9 inh	HNF4A DNA FP	FGF22 binding	UCH37 DUB inh	Vif A3G	RanGTP-Imp inh	Ecoli growth
O=C(Nc1cc(F)ccc1F)C1CCN(S(=O)(=O)c2cccc3nonc23)CC1	0.4	6.0	i	0.3	·	-4.2	0.686
COc1cc(N/N=C(\C)c2ccc(N)cc2)nc(-c2ccccc2)n1	8.8	4.7	i	·	-0.9%	-2.9	·
NS(=O)(=O)c1cccc(NC(=O)COC(=O)CCCc2c[nH]c3ccccc23)c1	4.2	4.5	i	-1.2	-0.2%	-2.2	0.71
CCOC(=O)N1CCN(C(=O)c2ccc(NC(=O)CC)cc2)CC1	·	1.4	·	0.0	3.4%	5.4	0.684
Cc1nc2ccccc2cc1C(=O)N/N=C/c1cccc([N+](=O)[O-])c1	·	1.5	·	·	13.1%	-2.4	·
CCN(CC)S(=O)(=O)c1cccc(C(=O)N/N=C/c2ccc([N+](=O)[O-])o2)c1	-0.3	0.4	i	·	-1.9%	-0.5	·
CC(C)Oc1ccc(CNC(=S)Nc2ccccc2)cc1Cl	-1.5	1.8	i	3.9	4.0%	-3.4	0.636
Cc1ccccc1N1CCN(C(=S)c2ccc(-c3cccc([N+](=O)[O-])c3)o2)CC1	7.1	7.0	·	9.3	-5.4%	-2.3	0.678
O=S(=O)(CCSc1ccc(C(F)(F)F)cn1)c1ccc(Cl)cc1	1.8	2.8	i	2.5	-9.3%	2.5	0.694
CCS(=O)(=O)N1Cc2ccccc2CC1C(=O)Nc1nnc(C2CC2)s1 (centres undefined)	-0.8	-3.6	i	·	-0.7%	-4.2	·
O=C(NC1CC1)C1CCCN(C(=O)NC2CCCCC2)C1 (centres undefined)	-1.2	-2.7	i	3.6	1.3%	?	0.669
COc1ccc2nc3ccccc3nc2c1NC(=O)c1ccc(Cl)cc1	·	-2.6	·	-0.5	-2.1%	-26.5	0.667
COC(=O)C1NN=C(C(=O)c2ccc(Cl)cc2)C1c1ccc(OC)cc1 (centres undefined)	7.4	1.7	i	4.5	4.5%	-1.0	0.691
COc1ccc2c(C)cc(SCC(=O)N(C)C3CCS(=O)(=O)C3)nc2c1 (centres undefined)	-1.5	2.4	i	4.0	·	5.0	0.698
Cc1cc(=O)n2nc(N3CCCC(C(=O)NCc4ccc(Cl)cc4)C3)sc2n1 (centres undefined)	-10.5	-0.8	i	2.4	·	6.6	0.691
O=C(NCc1cccnc1)c1nc(-c2cccs2)no1	-1.6	-21.8	i	4.7	19.8%	2.7	0.679
CCOC(=O)N1CCN(C(=O)c2ccccc2N(C)S(C)(=O)=O)CC1	·	-5.0	·	1.9	15.1%	?	0.685
CC(C)NC(=O)c1onc(CSc2ccncc2)c1C(=O)NC(C)C	0.7	0.2	i	-0.1	·	0.2	0.602
COc1ccc(S(=O)(=O)Nc2ccccc2)cc1OC	·	0.4	·	5.2	-4.8%	1.7	0.713
CC[C@@]1(C(=O)OC)N[C@H](CN(C)C(=O)Nc2ccc(Cl)cc2)[C@@H]2C(=O)N(Cc3ccccc3)C(=O)[C@@H]21	-3.3	0.8	i	1.6	3.5%	·	0.672
Cc1cccc(NC(=O)COC(=O)CCCC2=NS(=O)(=O)c3ccccc3N2)c1	-2.3	-1.3	i	1.2	·	-2.2	0.696
O=C(Cn1cc(C(F)(F)F)ccc1=O)N/N=C/c1cccc(Cl)c1	-2.0	-5.9	i	·	·	-2.8	·
COc1ccccc1/C=C(/C(=O)OCC(N)=O)c1ccccc1	2.3	-0.2	i	4.6	2.3%	0.4	0.698
Cc1cc(NC(=O)CN2C(=O)NC(CC(C)C)C2=O)no1 (centres undefined)	-0.5	-0.5	i	0.3	·	·	0.68
COc1ccc(OCCn2c(=O)sc3ccccc32)cc1	-2.7	-0.1	i	0.7	-8.8%	-4.0	0.624
CSc1nn2c(C(F)(F)F)cc(C(F)(F)F)nc2c1C(N)=O	2.3	-2.5	i	9.3	·	-6.9	0.645
CCCc1[nH]nc2c1C(c1ccccc1OCC)C(C#N)=C(N)O2 (centres undefined)	·	1.5	·	6.5	5.3%	0.1	0.658
CCC(NC(=O)c1cccc(Cn2nc(C)c([N+](=O)[O-])c2C)c1)c1ccc(C(C)C)cc1 (centres undefined)	·	-3.2	·	4.4	5.8%	-0.7	0.75
Cc1ccc(C(=O)C2CCN(CC(=O)Nc3ccccc3C)CC2)cc1	-2.8	4.0	i	0.1	·	0.8	0.677
COCCN1C(=NCCCOC(C)C)N[C@@H](c2ccccc2)C(C(=O)OC)=C1C	-3.1	-2.9	i	0.9	·	-2.2	·
CC1=CC(C)(C)n2c(O)c(N=NC(N)=S)c3cccc1c32	·	0.5	·	4.8	·	1.5	0.751
CCn1c2ccccc2c2cc(N=C3SC(CC(=O)Nc4ccccc4OC)C(=O)N3CCOC)ccc21 (centres undefined)	·	-6.1	·	4.9	10.4%	-0.8	0.708
CCCCCn1c(C(Cc2ccccc2)NC(=O)COC)nc2ccccc21 (centres undefined)	-12.7	1.6	i	0.1	0.0%	3.4	0.789
CCn1nnnc1NC(=O)c1cc(Cl)c(OC)c(Cl)c1	6.4	2.6	i	-1.8	0.2%	·	0.665
O=C(COc1ccc(Cl)cc1Br)NNC(=O)C(=O)N1CCCCC1	·	1.0	·	-3.0	0.8%	0.6	0.746
CC(=O)Nc1c(NCC(C)C)c2ccccc2oc1=O	·	1.5	·	0.7	17.4%	10.1	0.666
O=C(NCC(=O)N1CCCCCCC1)c1cccc([N+](=O)[O-])c1	2.3	-2.2	i	1.4	-8.6%	·	0.61
c1ccc(CCNc2ncnc3sccc23)nc1	-2.3	-1.7	i	-1.8	-14.2%	-1.6	0.686
COc1cccc(C(=O)COC(=O)c2n[nH]c(=O)c3ccccc23)c1	-1.3	1.8	i	·	-0.3%	2.4	·
COc1ccc(NC(=O)COC(=O)Cc2c(F)cccc2Cl)cc1OC	-0.9	-1.9	i	1.5	-5.2%	-5.3	0.656

Not all compounds are listed. The share of hits here may be higher or lower than overall.
